Bfl-1 A1 inh: caspase 3/7 activation in MEF A1-2A-BIM cells, primary screen, A1 inhibitor project, cell-based, luminescence, HTS; Caspase-Glo 3/7 luminescence, 3 h; percent of clofoctol response, vehicle zero; caspase activation, % (no concentration beside the values); actives 0.066% (n = 330,000); AID 2462, 2010;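 active means over half of replicate activation scores above 10%, or exactly half above 10 with the replicate mean above 10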;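 further: wells of about 30 µL received 50 nL stock; many hits fall short of the cut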
T cruzi repl: inhibitors of intracellular T. cruzi growth, primary screen, luminescence, NIH3T3 host cells; AID 1885, 2009; actives 1.4% (n = 300,000); T. cruzi beta-gal in NIH3T3, 90 h; inhibition, % (no concentration beside the values);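 active means mean inhibition across valid replicates above about 55%, limit read from the data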;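 further: signal also drops with host cell toxicity which is not excluded here; 0% = plate median of DMSO wells and 100% = zero luminescence signal; higher percent means less beta-gal luminescence so fewer parasites; stock transfer was 50 nL into about 50 µL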
Ecoli rRNA inh: reduced GFP signal of wild-type E. coli, primary screen, bacterial rRNA inhibitor project, GFP/RFP fluorescence, OD600, single point. E. coli WT GFP vs humanized-ribosome RFP mutants, 24 h; active compounds read low; DMSO median 0, no signal -100. GFP signal change (wild-type ribosome), % (concentration not given with the values). actives 1.6% (n = 350,000). AID 720706, 2013;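 active means significant combined selectivity score with lowered wild-type GFP, culture density cut under 30%, mutant RFP and density less affected; inactive means any of these conditions unmet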; further: one replicate is shown; some compounds called inactive have numbers as strong as hits
FGF22 binding: binders of human FGF22 protein, primary screen, FGF22 synaptogenesis inhibitor project, biophysical, thermal shift, single point; recombinant FGF22 thermal shift, SYPRO orange fluorescence; percent of sucrose octasulfate shift, DMSO zero; calls only at 9.99 µM; actives 1.5% (n = 340,000); AID 651658, 2012;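 active means melting point raised past a set limit in the mean and every replicate; three in four hits are not shown here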
Target sequence (Q9HCT0 whole entry, looked up): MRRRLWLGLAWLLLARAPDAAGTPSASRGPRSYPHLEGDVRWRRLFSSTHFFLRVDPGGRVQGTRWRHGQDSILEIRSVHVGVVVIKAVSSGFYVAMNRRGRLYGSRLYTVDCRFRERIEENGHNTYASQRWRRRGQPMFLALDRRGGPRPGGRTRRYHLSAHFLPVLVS
Beta apoptosis: inhibitors of cytokine-induced beta cell apoptosis, primary screen, luminescence; INS-1E cytokine-induced death, ATP luminescence, 48 h; percent of positive-control rescue, neutral wells zero; protection from apoptosis, % (concentration not given with the values); actives 0.8% (n = 300,000); AID 435005, 2010;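 active means all replicates at 75% or more, or half of them and the mean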;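 further: 0% = cytokine-treated negative control wells and 100% = positive control rescue; higher means more ATP so stronger rescue from cytokine killing; wells of about 40 µL received 100 nL stock; the first replicate is given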
AF4-AF9 inh: inhibitors of AF4 peptide binding to AF9, primary screen, biochemical, AlphaScreen, biotin-AF4 peptide, FLAG-AF9, single point. Protein AF-9 (Homo sapiens), P42568. inhibition, % at 10 µM. actives 0.47% (n = 350,000). AID 651704, 2012;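 active means every replicate reaching a set inhibition limit, whatever the replicate mean, cut at about 25% in these data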;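 further: 0% = plate neutral control median and 100% = total signal loss; the record names both 10 and 1 µM as test concentration; the first replicate is given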
Target sequence (P42568 whole entry, looked up): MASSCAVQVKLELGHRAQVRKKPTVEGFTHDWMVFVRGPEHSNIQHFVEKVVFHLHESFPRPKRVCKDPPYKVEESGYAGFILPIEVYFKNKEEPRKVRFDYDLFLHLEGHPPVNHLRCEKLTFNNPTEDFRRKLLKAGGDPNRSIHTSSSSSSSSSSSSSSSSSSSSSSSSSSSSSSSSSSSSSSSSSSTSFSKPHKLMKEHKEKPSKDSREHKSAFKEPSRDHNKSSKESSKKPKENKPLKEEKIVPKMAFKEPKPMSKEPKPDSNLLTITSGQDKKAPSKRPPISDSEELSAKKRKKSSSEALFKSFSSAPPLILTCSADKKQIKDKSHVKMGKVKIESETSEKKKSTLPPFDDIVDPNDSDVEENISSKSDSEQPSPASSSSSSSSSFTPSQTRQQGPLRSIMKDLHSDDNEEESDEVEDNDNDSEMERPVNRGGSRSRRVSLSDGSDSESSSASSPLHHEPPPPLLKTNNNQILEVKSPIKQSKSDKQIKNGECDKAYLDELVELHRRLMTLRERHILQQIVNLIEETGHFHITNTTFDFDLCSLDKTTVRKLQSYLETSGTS
E coli growth: E. coli growth inhibition, primary screen, OD600. actives 0.21% (n = 330,000). AID 1053175, 2014. Escherichia coli growth, 23 h; active compounds read low. OD600 absorbance (concentration not given with the values);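 active means OD600 absorbance below the run mean of sample wells minus 3.6 SD, in any replicate, cut at about 0.56 in these data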;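 further: stock transfer was 300 nL into about 60 µL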
UCH37 DUB inh: inhibitors of human UCH37 deubiquitinase, primary screen, biochemical, Ub-AMC cleavage, fluorescence; inhibition, % (test concentration not listed); purified proteasome/UCH37; Ubiquitin carboxyl-terminal hydrolase isozyme L5 (Homo sapiens), Q9Y5K5; actives 0.33% (n = 330,000);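 active means mean of two replicates above 20%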;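 further: 0% = compound-free wells with enzyme and 100% = wells lacking proteasome; stock transfer was 100 nL into about 20 µL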
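Material: human UCH37 enzyme supplied as purified proteasome complex. Measure: % inhibition of Ub-AMC cleavage fluorescence. Medium: pH 7.4 Tris-HCl (50 mM) with ovalbumin, ATP-MgCl2, DTT. Times: 30 min preincubation with enzyme, 25 min cleavage at room temperature. Detection: AMC fluorescence intensity at 355/460 nm.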
Ecoli rRNA inh OD600: also measured in Ecoli rRNA inh; calls as there; OD600 change, %; measured here: OD600 growth;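 optical density of the mix in the first replicate; 0 = DMSO median and -100 = no signal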
Ecoli rRNA inh RFP: second read-out of Ecoli rRNA inh, no call of its own (marks repeat the call); RFP signal change, %; measured here: RFP humanized mutant strains;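 first replicate; 0 = DMSO median and -100 = no signal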
Numbers without * were called inactive; i = inactive; · = no result given.

Under each structure – Bfl-1 A1 inh	T cruzi repl	Ecoli rRNA inh	Ecoli rRNA inh OD600	Ecoli rRNA inh RFP	FGF22 binding	Beta apoptosis	AF4-AF9 inh	E coli growth	UCH37 DUB inh
1: COCCn1c(Cc2ccccc2)nnc1SC(C)C(=O)NC1CC1 (centres undefined)
→ 2.5	·	7	11	-0.4	i	-3	4.0	0.63	-0.2
2: Cc1cc(NC(=O)COC(=O)CSc2nc3cc(Cl)ccc3n2Cc2ccccc2)no1
→ -0.2	0	·	·	·	·	0	·	0.75	1.6
3: CCc1cc2c(SCC(=O)NC3CC3)ncnc2s1
→ 0.5	·	-2	-1	2.0	i	-2	0.4	0.72	0.9
4: COc1ccc(CN(CC(=O)NCc2ccco2)C(=O)CNS(=O)(=O)c2ccc(C)cc2)cc1
→ -0.3	-4	1	-3	0.3	i	-3	1.5	0.68	-0.2
5: COc1ccccc1/C=C1\SC(=S)N(NS(=O)(=O)c2ccccc2)C1=O
→ 0.2	5	2	0	1.2	i	-5	-1.4	0.67	10
6: O=C(CCC(=O)Nc1ccccc1)N/N=C/c1ccc2c(c1)OCO2
→ -0.3	-4	2	8	1.6	i	-4	0.1	·	·
7: COc1ccc(/C=N/OC(=O)Nc2ccc(Cl)cc2)c(OC)c1
→ -0.1	-1	-18	-7	-5.6	i	-15	-1.5	·	·
8: CCOc1ccccc1N(C)C(=O)c1cc2c(=O)n(CC)c3ccccc3c2s1
→ 0.3	62*	-29	-13	16	i	15	4.2	0.69	2.7
9: Cc1cc(NC(=O)COc2coc(CN3CCN(c4ccc(F)cc4)CC3)cc2=O)no1
→ 0.1	-12	0	3	-2.1	·	·	-2.1	0.69	-0.3
10: COc1ccc(/C=C/C(=O)Nc2cc(S(=O)(=O)N3CCOCC3)ccc2C)cc1OC
→ -0.8	2	4	20	5.7	i	-3	-4.7	0.7	-26
11: O=C(CN1C(=O)c2ccccc2S1(=O)=O)c1ccccc1Cl
→ -1.0	-1	10	-2	1.4	i	·	-1.7	·	·
12: CCCNC(=O)c1ccc(Cn2cc(C(F)(F)F)ccc2=O)cc1
→ 0.0	-13	2	-1	1.2	·	1	-1.2	0.67	4.0
13: Cc1cc([N+](=O)[O-])ccc1NC1CCCC1
→ 0.7	6	-26	-35	-11	i	-2	3.4	0.62	4.8
14: O=c1oc(-c2ccccc2Br)nc2ccccc12
→ 1.2	-7	-5	-11	-1.7	i	·	-1.9	0.66	-0.7
15: CCCOP(=O)(c1ccc(N(C)C)cc1)C(O)c1cc(OC)c(OC)c(OC)c1 (centres undefined)
→ 1.0	8	·	·	·	·	-5	·	0.74	5.2
16: CCc1noc(C)c1C(=O)OCC(=O)N(CCOC)c1c(N)n(Cc2ccccc2)c(=O)[nH]c1=O
→ -0.6	-11	17	14	-1.2	i	-3	-0.2	0.7	3.4
17: O=C1c2c(O)cc(O)cc2O[C@H](c2ccc(O)c(O)c2)[C@H]1O
→ 0.1	-21	·	·	·	i	·	-24	·	7.3
18: CCC(C)(C)n1nnnc1C(c1ccc(C)cc1)N1CCN(Cc2ccc3c(c2)OCO3)CC1 (centres undefined)
→ -0.5	13	·	·	·	·	-1	·	0.71	-0.4
19: Cc1ccc(SC(C)C(=O)N2CCCC2)cc1 (centres undefined)
→ -0.5	-10	5	10	-3.4	·	-7	2.8	0.72	3.1
20: CCn1c(=O)cc(SCC(=O)NCCCN2CCN(c3ccc(F)cc3)CC2)c2ccccc21
→ 0.3	10	·	·	·	·	-8	·	0.63	3.7
21: CN(CC(=O)Nc1ncn[nH]1)S(=O)(=O)c1ccc(Br)cc1
→ 0.3	-1	7	2	-3.0	i	-5	-0.3	0.63	0.4
22: COc1ccc(C)cc1NC(=O)c1cc(C2CC2)nc2c1c(C)nn2C1CCS(=O)(=O)C1 (centres undefined)
→ ·	·	·	·	·	i	·	0.4	0.65	2.0
23: Cc1oc(-c2cccc(C(F)(F)F)c2)nc1CN1CCOCC1
→ -1.1	·	5	-1	-2.1	i	-10	0.2	0.65	1.3
24: COC(=O)CSc1cc(C)nc(SC)n1
→ 0.4	-14	·	·	·	·	·	·	0.66	4.3
25: CCC(CC)C(=O)Nc1c2c(nn1-c1ccc(OC)cc1)CS(=O)C2 (centres undefined)
→ 0.4	-3	·	·	·	·	-3	·	0.73	4.5
26: Cc1cc(C(=O)CCC(=O)N2CCN(S(=O)(=O)c3cccs3)CC2)c(C)s1
→ 0.2	2	-11	-6	-6.6	·	-4	·	0.67	4.2
27: CC1C=CCC2C(=O)N(c3cccc(C(=O)N4CCCCCC4)c3)C(=O)C12 (centres undefined)
→ 0.1	7	·	·	·	·	2	·	0.64	5.0
28: CCCCS(=O)(=O)/C=C/[C@H]1[C@H](S(=O)(=O)CCCC)[C@H]2C=C[C@@H]1C2
→ -0.3	-6	·	·	·	·	0	·	0.66	4.7
29: Cc1ccc(NC(=O)CCCSc2nc3ccccc3[nH]2)cc1
→ -0.1	-5	-27	-39	20	i	-4	-1.4	0.63	3.1
30: O=C(COC(=O)c1ccc(O)cc1)NCCCc1ccccc1
→ ·	-10	·	·	·	i	·	0.0	0.72	5.4

Quoted at random: 5 compounds from above.
Under each structure – Bfl-1 A1 inh	T cruzi repl	Ecoli rRNA inh	Ecoli rRNA inh OD600	Ecoli rRNA inh RFP	FGF22 binding	Beta apoptosis	AF4-AF9 inh	E coli growth	UCH37 DUB inh
2: Cc1cc(NC(=O)COC(=O)CSc2nc3cc(Cl)ccc3n2Cc2ccccc2)no1
→ -0.2	0	·	·	·	·	0	·	0.75	1.6
27: CC1C=CCC2C(=O)N(c3cccc(C(=O)N4CCCCCC4)c3)C(=O)C12 (centres undefined)
→ 0.1	7	·	·	·	·	2	·	0.64	5.0
14: O=c1oc(-c2ccccc2Br)nc2ccccc12
→ 1.2	-7	-5	-11	-1.7	i	·	-1.9	0.66	-0.7
10: COc1ccc(/C=C/C(=O)Nc2cc(S(=O)(=O)N3CCOCC3)ccc2C)cc1OC
→ -0.8	2	4	20	5.7	i	-3	-4.7	0.7	-26
12: CCCNC(=O)c1ccc(Cn2cc(C(F)(F)F)ccc2=O)cc1
→ 0.0	-13	2	-1	1.2	·	1	-1.2	0.67	4.0

Further entries follow:
No.	Compound	Bfl-1 A1 inh	T cruzi repl	Ecoli rRNA inh	Ecoli rRNA inh OD600	Ecoli rRNA inh RFP	FGF22 binding	Beta apoptosis	AF4-AF9 inh	E coli growth	UCH37 DUB inh
31	COc1ccc(-c2c(C#N)c(N)nc3c2CCC3)cc1	0.5	19	23	-1	-0.4	i	-7	-5.9	0.68	-345
32	COc1ccccc1N1CCN(C(=O)c2ccc(-c3ccccc3)cc2)CC1	0.2	6	-17	-28	8.6	i	-3	5.3	0.68	4.6
33	Cc1ccc(OCCC(=O)OCC(=O)N2CCN(S(=O)(=O)c3ccc(Cl)cc3)CC2)cc1	0.5	-5	-3	0	1.3	i	-16	-9.0	0.64	3.3
34	COc1cccc2cc(C(=O)NCc3ccccc3Br)c(=O)oc12	-2.5	-7	-5	0	-2.1	i	5	-0.3	0.7	-6.2
35	CCOc1cc(CNc2ccc3c(c2)OCCO3)cc(Br)c1OCC(N)=O	-0.1	-5	·	·	·	·	-7	·	0.67	2.0
36	CC(C)(C)c1cccc(Cn2nnc3ccccc32)c1O	-0.2	-26	-33	-62	-20	i	16	-0.2	0.65	1.8
37	COc1cc(CCC(=O)OCC(=O)NCc2ccccc2)cc(OC)c1OC	-1.5	-14	5	-2	-5.1	i	1	-1.8	0.64	0.7
38	Cc1ccc(OC(=O)c2ccc(Br)o2)cc1	1.1	3	·	·	·	·	-2	·	0.75	4.2
39	Cc1ccc2c(c1)cc(CN(Cc1cccnc1)C(=O)NCc1ccccc1)c1nnnn12	0.1	28	·	·	·	·	·	·	0.69	2.0
40	O=C1CCC/C(=N\NC(=O)COc2ccc(Cl)cc2)C1	1.3	-7	5	4	6.2	i	·	-1.1	·	·
41	Cc1cc2c(cc(C(=O)O)n2C)s1	-0.8	-6	·	·	·	·	-7	·	0.69	4.8
42	Cc1ccc(N(CC(=O)NCc2ccc3c(c2)OCO3)C(=O)CCC(=O)Nc2ccccn2)cc1	0.2	6	6	6	-3.2	·	-9	-9.9	0.64	2.8
43	COc1ccc(NC(=O)NC(=O)c2cc(OCC(F)(F)F)ccc2OCC(F)(F)F)cc1	0.0	22	13	11	0.7	i	-1	-3.4	0.67	3.9
44	Cc1c(C(=O)N(Cc2cccc(Br)c2)C2CCS(=O)(=O)C2)oc2ccc(F)cc12 (centres undefined)	0.1	16	-8	-17	-0.8	i	·	4.8	0.71	5.4
45	Cn1c(C(=O)OCC(=O)NCc2cccs2)cc2sccc21	0.7	0	7	3	4.0	i	6	3.3	0.71	-0.6
46	C#CCn1cc(Cl)cc(C(=O)Nc2ccccc2)c1=O	-0.6	-4	12	14	-1.8	i	6	-1.5	0.64	4.7
47	CN(C)C(=S)NC(C)(C)C	0.5	-3	12	5	-2.1	i	3	-3.8	0.72	1.6
48	CCOC(=O)C1(Cc2cccc(F)c2)CCN(C(=O)COC)CC1	·	-9	0	-6	4.0	i	·	-3.5	0.7	5.3
49	Cc1ccc2nc(NC(=O)C3CCN(S(=O)(=O)c4cc([N+](=O)[O-])ccc4Cl)CC3)sc2c1	-0.1	67*	0	-7	1.0	i	4	3.5	0.66	3.9
50	COc1ccc(N/C=C\C(=O)c2ccc(Br)cc2)cc1OC	-0.3	2	·	·	·	·	3	·	0.73	4.9
51	CCC(=O)NC(=Nc1nc2ccccc2s1)NC(=O)CC	-2.9	8	·	·	·	·	4	·	0.67	-0.3
52	Cc1onc(-c2ccccc2)c1C(=O)OCC(=O)Nc1cc(S(=O)(=O)N2CCOCC2)ccc1Cl	-0.3	10	-19	-18	-1.9	i	15	-0.3	0.74	4.2
53	OC(COc1ccc(OCC(O)CN2CCN(Cc3ccccc3)CC2)cc1)CN1CCN(Cc2ccccc2)CC1 (centres undefined)	0.4	65*	·	·	·	i	19	7.8	0.59	2.7
54	CC(=O)c1cn(C)c(=O)n(C)c1=O	0.6	-2	17	24	0.5	i	-3	-1.8	0.7	4.0
55	CN(C)NC(=S)NC1CC2CCC1C2 (centres undefined)	0.4	-21	10	8	-2.3	i	-5	-1.0	0.67	5.0

The list is partial. The share of hits here may be higher or lower than overall.
